Calb FLC: affects C. albicans growth with fluconazole | C. albicans CaCi-2 (fluconazole-resistant clinical isolate) + fluconazole, Alamar Blue growth, 48 h | growth inhibition, % (test concentration not listed) | hit rate 0.57% among 300,000;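 active = most replicates above 75%; inconclusive = exactly half above 75%; inactive = most below 75%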;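 also: all wells also contain fluconazole at 8 µg/ml as a sub-toxic cotreatment; 0% = median of DMSO wells and 100% = median of geldanamycin control wells; wells of about 8 µL received 7.5 nL stock; the first replicate is given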
FGF22 binding: FGF22 (human) thermal shift binding; recombinant FGF22 thermal shift, SYPRO orange fluorescence; percent of sucrose octasulfate shift, DMSO zero; calls only at 9.99 µM; hit rate 1.5% among 340,000; AID 651658;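 active = melting point raised past a set limit in the mean and every replicate; inconclusive = no clear call; three in four hits are not shown here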
Target sequence (Q9HCT0 whole entry, looked up): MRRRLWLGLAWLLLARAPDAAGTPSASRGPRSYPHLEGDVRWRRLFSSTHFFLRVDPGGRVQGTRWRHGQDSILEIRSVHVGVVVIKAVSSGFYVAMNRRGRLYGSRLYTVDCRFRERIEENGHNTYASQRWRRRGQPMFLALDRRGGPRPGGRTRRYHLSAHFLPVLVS
AF4-AF9 inh: blocks AF4 peptide binding to human AF9. P42568. AlphaScreen, biotin-AF4 peptide binding to FLAG-AF9. inhibition, % at 10 µM. hit rate 0.47% among 350,000. AID 651704;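 active = every replicate reaching a set inhibition limit, whatever the replicate mean, cut at about 25% in these data; inconclusive = mean inhibition reaches that limit but some replicates miss it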;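 also: 0% = plate neutral control median and 100% = total signal loss; the record names both 10 and 1 µM as test concentration; the first replicate is given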
Target sequence (P42568 whole entry, looked up): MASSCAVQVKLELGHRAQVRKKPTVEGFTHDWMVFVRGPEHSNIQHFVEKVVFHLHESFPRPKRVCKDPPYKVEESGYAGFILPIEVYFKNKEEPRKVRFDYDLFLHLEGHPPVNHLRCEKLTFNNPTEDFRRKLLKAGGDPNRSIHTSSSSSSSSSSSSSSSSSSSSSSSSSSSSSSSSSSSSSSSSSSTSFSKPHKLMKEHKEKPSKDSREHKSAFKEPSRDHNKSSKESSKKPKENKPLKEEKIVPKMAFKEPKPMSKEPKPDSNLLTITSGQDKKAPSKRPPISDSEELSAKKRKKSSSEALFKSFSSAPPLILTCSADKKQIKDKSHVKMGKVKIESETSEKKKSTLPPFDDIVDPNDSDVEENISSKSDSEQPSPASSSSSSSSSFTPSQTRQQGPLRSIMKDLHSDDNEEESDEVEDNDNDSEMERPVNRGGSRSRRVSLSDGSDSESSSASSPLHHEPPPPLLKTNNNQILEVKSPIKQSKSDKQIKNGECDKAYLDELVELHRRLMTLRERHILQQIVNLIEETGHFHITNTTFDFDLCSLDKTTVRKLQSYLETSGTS
RanGTP-Impb inh: disruptors of Ran-importin-beta complex formation – biochemical, FRET, CFP-Ran, YFP-importin-beta, homogeneous, primary screen | cell-free CFP-Ran/YFP-importin-beta FRET ratio | inhibition, % (test concentration not listed) | hit rate 1.1% among 300,000;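 active = most replicates above 15%; inconclusive = exactly half above 15%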;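 also: 0% = DMSO wells and 100% = Ran loaded with GDP instead of GTP; wells of about 40 µL received 100 nL stock; the first replicate is given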
Beta cell apopt: beta cell apoptosis inhibition | hit rate 0.8% among 300,000 | protection from apoptosis, % (no concentration beside the values) | INS-1E cytokine-induced death, ATP luminescence, 48 h; percent of positive-control rescue, neutral wells zero;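 active = all replicates at 75% or more, or half of them and the mean; inconclusive = half reach 75% but not the mean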;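 also: 0% = cytokine-treated negative control wells and 100% = positive control rescue; higher means more ATP so stronger rescue from cytokine killing; wells of about 40 µL received 100 nL stock; the first replicate is given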
ALR H2O2 inh: inhibitors of human sulfhydryl oxidase ALR. purified ALR, DTT oxidation, H2O2 HRP-luminol luminescence. inhibition, % (concentration not given with the values). hit rate 3.8% among 290,000;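 active = mean and each replicate at 75% or more; inconclusive = only one of the two met; inactive = neither met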;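 also: stock transfer was 7.5 nL into about 7.5 µL; 0% = neutral wells and 100% = wells with inactivated enzyme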
Target sequence (P55789 whole entry, looked up): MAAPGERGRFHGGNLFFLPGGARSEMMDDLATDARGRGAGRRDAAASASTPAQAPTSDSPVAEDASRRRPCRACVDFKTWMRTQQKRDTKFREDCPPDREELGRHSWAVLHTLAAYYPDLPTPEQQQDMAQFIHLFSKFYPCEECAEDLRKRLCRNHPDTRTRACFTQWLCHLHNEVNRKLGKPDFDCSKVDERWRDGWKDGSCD
Ecoli rRNA inh: selective bacterial rRNA inhibition in E. coli. E. coli WT GFP vs humanized-ribosome RFP mutants, fluorescence, 24 h; hits give low values; DMSO median 0, no signal -100. GFP signal change (wild-type ribosome), % (concentration not given with the values). hit rate 1.6% among 350,000. AID 720706;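 active = significant combined selectivity score with lowered wild-type GFP, culture density cut under 30%, mutant RFP and density less affected; inactive = any of these conditions unmet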; also: one replicate is shown; some compounds called inactive have numbers as strong as hits
T cruzi inh: T. cruzi replication inhibition | T. cruzi beta-gal in NIH3T3, luminescence, 90 h | inhibition, % (no concentration beside the values) | hit rate 1.4% among 300,000;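 active = mean inhibition across valid replicates above about 55%, limit read from the data; inconclusive = mean below that limit but half or more replicates reach it; inactive = mean below it, under half of replicates reach it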;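 also: signal also drops with host cell toxicity which is not excluded here; 0% = plate median of DMSO wells and 100% = zero luminescence signal; higher percent means less beta-gal luminescence so fewer parasites; stock transfer was 50 nL into about 50 µL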
Ecoli rRNA inh OD600: second read-out of Ecoli rRNA inh, no call of its own (marks repeat the call); OD600 change, %; measured here: OD600 growth;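 optical density of the mix in the first replicate; 0 = DMSO median and -100 = no signal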
Ecoli rRNA inh RFP: recorded beside Ecoli rRNA inh, whose call it bears; RFP signal change, %; measured here: RFP humanized mutant strains;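 first replicate; 0 = DMSO median and -100 = no signal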
The depositor's hits bear a star; i = inactive; ? = inconclusive; . = no result given. Not all compounds are listed (hit frequency here may not be typical).

SMILES	Calb FLC	FGF22 binding	AF4-AF9 inh	RanGTP-Impb inh	Beta cell apopt	ALR H2O2 inh	Ecoli rRNA inh	Ecoli rRNA inh OD600	Ecoli rRNA inh RFP	T cruzi inh
CN(C)S(=O)(=O)c1ccc(C(=O)NNC(=O)C2COc3ccccc3O2)cc1 (stereo not drawn)	-22.2	i	-2.2	-1.8	-2.8	4.5	4.1	2.2	-4.1	-29.8
Cc1cc(C)cc(N(CC(=O)N2CCC(C)CC2)S(=O)(=O)c2ccccc2)c1	6.8	.	.	?	-1.4	-1.7	.	.	.	23.7
CCOc1ccc(-n2c(SCC(=O)NCc3ccco3)nc3ccccc3c2=O)cc1	2.3	i	-0.5	?	2.7	7.9	18.0	13.9	15.9	5.7
CCOC(=O)N1CCN(C(=O)Nc2ccc3oc(C)nc3c2)CC1	-4.0	i	-15.8	2.6	-2.7	-16.9	19.1	1.9	0.4	-9.4
Cc1cc(C)c(NC(=O)CS(=O)CC(=O)N2CCN(c3cccc(C)c3C)CC2)c(C)c1 (stereo not drawn)	30.8	i	0.7	0.2	-0.5	-1.7	-22.1	-31.1	0.1	17.2
Cc1cccc2cc(C(c3nnnn3Cc3ccccc3)N3CCN(C)CC3)c(=O)[nH]c12 (stereo not drawn)	-6.7	.	.	0.2	-3.4	-9.6	.	.	.	3.6
CC(Oc1ccccc1F)C(=O)NNC(=O)CCNC(=O)c1ccco1 (stereo not drawn)	5.2	i	2.2	0.8	-6.1	-1.0	4.4	4.2	-2.8	-7.0
Cc1ccc(COc2ccccc2C(=S)N2CCCC2)cc1	9.5	i	6.1	-2.1	-3.6	-5.2	-20.1	-40.4	-1.8	-4.9
COc1ccc(NS(=O)(=O)c2ccc(NC(C)=O)cc2)c(OC)c1	-6.5	i	2.2	-2.8	-4.0	-3.6	5.2	3.2	-1.1	9.3
COc1cc(SC#N)ccc1N=Cc1c(C)[nH]n(-c2ccc(C)cc2C)c1=O	-0.3	.	.	-3.6	8.2	99.1*	.	.	.	-0.8
CC(C)C(NC(=O)OCc1ccccc1)C(=O)N1CCOCCOCCOCC1 (stereo not drawn)	23.1	i	-0.7	3.7	.	1.1	8.2	12.6	-0.6	-0.8
O=C(Nc1ccccc1N1CCCC1)C1CCN(C(=O)c2ccc(F)cc2)CC1	1.0	.	2.3	-1.6	.	98.1*	-4.4	8.4	-0.3	-4.8

Reformatted: entries from further up
Each structure is followed by: Calb FLC, FGF22 binding, AF4-AF9 inh, RanGTP-Impb inh, Beta cell apopt, ALR H2O2 inh, Ecoli rRNA inh, Ecoli rRNA inh OD600, Ecoli rRNA inh RFP, T cruzi inh
- CN(C)S(=O)(=O)c1ccc(C(=O)NNC(=O)C2COc3ccccc3O2)cc1 (stereo not drawn)
  -22.2, i, -2.2, -1.8, -2.8, 4.5, 4.1, 2.2, -4.1, -29.8
- Cc1cc(C)cc(N(CC(=O)N2CCC(C)CC2)S(=O)(=O)c2ccccc2)c1
  6.8, ., ., ?, -1.4, -1.7, ., ., ., 23.7
- CCOc1ccc(-n2c(SCC(=O)NCc3ccco3)nc3ccccc3c2=O)cc1
  2.3, i, -0.5, ?, 2.7, 7.9, 18.0, 13.9, 15.9, 5.7
- CCOC(=O)N1CCN(C(=O)Nc2ccc3oc(C)nc3c2)CC1
  -4.0, i, -15.8, 2.6, -2.7, -16.9, 19.1, 1.9, 0.4, -9.4
- Cc1cc(C)c(NC(=O)CS(=O)CC(=O)N2CCN(c3cccc(C)c3C)CC2)c(C)c1 (stereo not drawn)
  30.8, i, 0.7, 0.2, -0.5, -1.7, -22.1, -31.1, 0.1, 17.2
- Cc1cccc2cc(C(c3nnnn3Cc3ccccc3)N3CCN(C)CC3)c(=O)[nH]c12 (stereo not drawn)
  -6.7, ., ., 0.2, -3.4, -9.6, ., ., ., 3.6
- CC(Oc1ccccc1F)C(=O)NNC(=O)CCNC(=O)c1ccco1 (stereo not drawn)
  5.2, i, 2.2, 0.8, -6.1, -1.0, 4.4, 4.2, -2.8, -7.0
- Cc1ccc(COc2ccccc2C(=S)N2CCCC2)cc1
  9.5, i, 6.1, -2.1, -3.6, -5.2, -20.1, -40.4, -1.8, -4.9

Next results.
SMILES	Calb FLC	FGF22 binding	AF4-AF9 inh	RanGTP-Impb inh	Beta cell apopt	ALR H2O2 inh	Ecoli rRNA inh	Ecoli rRNA inh OD600	Ecoli rRNA inh RFP	T cruzi inh
CCCCc1cc(=O)oc2cc(C)cc(OCC(=O)Nc3cccnc3)c12	2.0	i	-1.0	0.8	11.4	-3.5	2.7	14.7	-4.2	9.7
Cc1cc(C)n2nc(CC(=O)NCc3ccccc3Cl)nc2n1	-2.7	.	.	1.0	-3.4	-3.2	.	.	.	1.5
CCCCCNS(=O)(=O)c1cc(C)ccc1OC	?	.	.	-3.0	-3.7	-1.2	.	.	.	11.4
CCN(CC)S(=O)(=O)c1ccc(N2CCCC2)c(NC(=O)c2ccc(N3CCCC3=O)cc2)c1	4.8	i	3.4	?	-1.5	-2.0	0.5	0.3	1.9	0.0
O=C(Nc1cccc(Cl)c1)c1ccc(OC(=S)N2CCOCC2)cc1	-4.0	i	-4.3	1.3	1.8	-2.4	13.1	18.3	0.0	-11.6
COCCCn1c(SCC(=O)Nc2ccc(NC(C)=O)cc2)nc2sc3c(c2c1=O)CCC3	-6.6	i	-27.2	-0.5	-1.1	-2.3	6.7	7.6	-0.1	22.3
O=c1nc2c(O)cccn2c2c1c(=O)[nH]c1ccccc12	-5.0	i	-12.1	-183.0	.	.	2.2	-5.8	-4.3	-9.5
O=C(NC1CCCCC1)C1CCCN(S(=O)(=O)c2ccc(Br)s2)C1 (stereo not drawn)	14.4	i	-0.9	2.8	-0.4	-12.0	14.2	22.1	1.3	-1.7
COc1ccc(CNC(=O)c2nccnc2CO)cc1	-0.5	i	9.2	-1.0	2.6	-12.1	9.7	2.1	1.0	-3.3
CCOc1cc(NC(=S)NCc2ccco2)c(OCC)cc1NC(C)=O	-0.5	.	.	-1.8	-1.0	-38.6	.	.	.	24.6
COc1ccc(NC(=O)C(=O)NCCO)cc1Cl	3.4	.	.	0.7	-2.9	-2.1	.	.	.	-0.6
Cc1cc(OCC(=O)Nc2ccncc2)cc(C)c1Cl	?	i	-6.9	-3.8	.	1.9	-37.1	-62.7	-2.1	3.7
CCCOC(=O)CC1C(=O)NCCN1Cc1cc(OC)cc(OC)c1 (stereo not drawn)	-4.7	i	0.2	0.5	-4.8	-7.3	-3.2	-2.7	-2.2	9.4
C=CCN1C(=O)C(O)(CC(=O)c2ccc(-n3cccc3)cc2)c2ccccc21 (stereo not drawn)	?	.	.	-1.1	-5.2	49.5	.	.	.	-0.9
Cc1cc(N(CCO)CCO)nc(-n2nc(C)cc2C)n1	-2.3	.	.	-0.4	-6.8	-12.7	.	.	.	-0.2
O=C(NCCc1ccccc1)c1ccc(CS(=O)(=O)Cc2ccc(F)cc2)o1	3.3	i	-0.9	1.2	0.5	-1.6	5.8	7.5	0.7	-12.2
Fc1ccccc1Nc1nc2ccccc2n2nnnc12	2.3	i	-2.6	13.6	6.2	46.3	27.6	13.6	-0.8	-7.7
CN(C)S(=O)(=O)c1ccc(C(=O)N2CC(=O)Nc3ccc(F)cc3C2c2ccc(F)cc2)cc1 (stereo not drawn)	-0.4	i	1.7	0.1	2.9	-8.6	-1.7	0.9	-0.9	0.0
CCOC(=O)c1cn(CC(=O)Nc2cccc(F)c2)nn1	6.2	i	-1.3	4.4	-3.7	-6.9	-2.2	-4.8	-1.0	-1.5
CC1CN(C(=O)CCC(=O)NC2CCN(Cc3ccccc3)CC2)c2ccccc2O1 (stereo not drawn)	19.3	i	-1.5	0.9	-4.5	0.0	-2.5	-4.6	-0.1	2.3
CC(Sc1nccn1C)C(=O)c1ccc(Br)cc1 (stereo not drawn)	-10.5	i	-5.6	1.2	-2.6	0.9	4.6	3.1	1.7	-11.1
COc1ccc(C(C)=O)cc1COc1ncnc2ccccc12	20.4	i	-1.7	-1.1	-0.8	-3.3	-2.2	-1.0	-5.0	5.6
CCOC(=O)c1oc2ccccc2c1COC(=O)CNC(=O)c1ccco1	1.9	.	-1.5	.	-5.4	-4.5	-0.5	-9.3	-0.1	-7.6
O=C(c1ccco1)n1nc(-c2ccc(Cl)cc2)nc1NCc1ccco1	-6.0	.	.	1.1	-3.0	-3.9	.	.	.	-6.3
CC(C)(C)OC(=O)N1CCN(C(=O)OCC2c3ccccc3-c3ccccc32)CC1C(=O)O (stereo not drawn)	-3.6	i	2.3	?	2.7	-18.7	4.7	3.7	3.0	1.8
CCOc1cc2c(cc1OC)C(NC(=O)C(F)(F)F)CC2=O (stereo not drawn)	-9.8	.	.	0.6	.	-3.2	.	.	.	-14.9
OC(COc1ccccc1Br)CN1CCNCC1 (stereo not drawn)	0.8	i	-6.6	0.2	-7.2	-12.4	-8.6	-7.6	-3.6	7.3
CCOC(=O)c1sc(NC(=O)CN2CC(C)OC(C)C2)nc1C (stereo not drawn)	0.1	i	0.9	6.9	3.7	.	13.8	0.0	1.2	3.3
O=C(O)CCN1C(=O)c2ccc(NC(=O)CSc3ccccc3)cc2C1=O	-4.6	.	.	3.3	-0.8	.	.	.	.	-15.3
COc1ccccc1CCNS(=O)(=O)c1cc2c3c(c1)CCN3C(=O)CC2	7.3	i	-7.0	2.3	.	-0.9	-1.5	-1.9	-4.1	-21.5
CC(C)(C)n1nnnc1C(c1cccnc1)N1CCOCC1 (stereo not drawn)	-2.4	i	-1.5	1.4	-7.5	.	-20.5	-29.4	-18.5	-1.7
CC(SCc1ccccc1)C(=O)NC1CCCC1 (stereo not drawn)	-43.4	.	.	-1.5	-2.8	-10.9	.	.	.	-6.9
O=C(O)C1CCN(C(=O)NC2CCCCC2)CC1	-12.4	.	.	0.3	2.2	-10.8	.	.	.	-8.3
COc1cccc(/C=C2\SC(=S)N(NS(=O)(=O)c3ccc(C)cc3)C2=O)c1OC	21.4	i	-3.9	6.4	-1.0	90.6*	1.5	-18.2	2.6	-2.0
CC1CCCN(C(=O)c2ccc3c(c2NCCO)C(=O)c2ccccc2C3=O)C1 (stereo not drawn)	-0.9	.	.	-0.4	2.6	-6.6	.	.	.	18.3
Cc1ccc(NC(=O)CSC2=NN3CCCC(=O)N=C3S2)c(C)c1	5.5	i	5.6	?	3.8	.	8.1	1.0	1.1	1.3
CCc1nnc(NC(=O)c2cc(-c3ccncc3)nc3ccccc23)s1	33.2	i	-39.6	2.5	-4.1	-2.1	1.9	-3.1	-2.8	0.9
COC(=O)C(CO)NC(=O)C(C)NC(=O)CNC(=O)OCc1ccccc1 (stereo not drawn)	-6.5	i	0.0	3.3	-6.5	-4.5	15.0	13.8	-1.1	-5.6
CN(CCOC(=O)/C=C/c1ccco1)Cc1ccccc1	-40.7	.	3.6	.	-3.3	7.3	18.6	9.4	5.1	1.5
CCOc1cc(/C=N/NC(=O)c2ccccn2)ccc1OC(=O)c1ccc(F)cc1	29.2	i	3.5	1.3	-2.9	5.5	6.4	5.3	-1.4	-4.0
CCOC(=O)N1CCC(NC(=O)CCN2C(=O)COc3ccccc32)CC1	4.3	i	1.6	4.3	1.6	0.0	7.4	4.2	-1.6	4.1
CNC(=O)c1nc(C)n(-c2cc(Cl)cc(Cl)c2)n1	-3.6	.	.	-3.0	1.6	-1.9	.	.	.	-1.4

Screening data as filed in PubChem BioAssay.
